miR-21 reporter: raises the signal of a miR-21 reporter. HeLa miR-21 FLuc reporter, luciferase, 48 h. AID 2288. Potency, µM (titrated, usually from 38.3 µM), inactives show top-dose reporter change, positive = more light. 340,000 tested, under 10 active; active = well fitted rising curve with a large enough effect; inconclusive = small, poorly fitted or top-dose-only effect; inactive = no such curve, though single readings can be large or run the other way;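 note: % of control where 0% means no effect; miR-21 action dims this reporter so a rising signal means less miR-21 action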
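Luminescence from a firefly luciferase reporter carrying a miR-21 binding site downstream, stably expressed under a CMV promoter in HeLa cells that make miR-21 endogenously, reports miRNA modulation after 48 h compound exposure up to approximately 40uM final.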
The depositor's hits bear a star; u = inconclusive. Some of the compounds tested; rates above refer to the full screens.

SMILES | miR-21 reporter
COc1ccc(C(=O)Nc2ccc(-c3nnc4n3CCCCC4)cc2)cc1OC | -8%
CC(C)(C)c1ccc(C2Sc3ccccc3NC3=C2C(=O)c2ccccc23)cc1 (centres undefined) | u
CC(NC(=O)CSc1n[nH]c(-c2ccccc2Cl)n1)c1nc2ccccc2[nH]1 (centres undefined) | -7%
CCOc1ccc(CN2C(=O)c3ccccc3C2C(=O)NCCc2ccc(OC)c(OC)c2)cc1 (centres undefined) | -1%
CCOC(=O)c1ccc(NC(=O)CCS(=O)(=O)c2ccc3c(c2)oc(=O)n3C)cc1 | 5%
CCn1c2ccccc2c2nnc(SCC(=O)O)nc21 | 0%
CCS(=O)(=O)c1nc(S(=O)(=O)c2ccc(C)cc2)c(NC(C)c2ccccc2)s1 (centres undefined) | 0%
Cc1ccc(Cl)cc1N1CCN(C(=O)C2CCN(S(=O)(=O)c3c(C)noc3/C=C/c3ccccc3F)CC2)CC1 | -1%
Cc1cccn2c(=O)c(C(=O)N3CCN(c4ccccc4)CC3)cnc12 | -2%
COc1cc(C2CC(=O)c3c([nH]c(C(=O)OCc4ccc(C)cc4)c3C)C2)cc(OC)c1OC (centres undefined) | 26%
COc1cccc(NC(=O)CC2Nc3cc(C)c(C)cc3NC2=O)c1 (centres undefined) | -30%
COc1ccc(C(=O)c2oc3ccccc3c2NC(=O)COc2cccc(C)c2C)cc1 | 1%
COCCNC(=O)CCn1c(=O)c2cc(OC)c(OC)cc2n(CC(=O)Nc2ccc(Cl)cc2F)c1=O | -2%
COc1ccc(C2=Nc3ccc(F)cc3NC(c3cccc(C(F)(F)F)c3)=N2)cc1 | 8%
Cc1ccc(N(CC(=O)N2CCN(c3ccccc3)CC2)S(=O)(=O)c2c(C)noc2C)cc1 | -3%
COc1cc(NS(=O)(=O)c2ccc(NC(=O)c3ccccc3C(=O)O)cc2)nc(OC)n1 | -1%
Cc1oc(-c2cccc(Cl)c2)nc1CSc1nncn2c1cc1occc12 | 2%
COc1ccc2c(CNCCc3ccco3)c(C(=O)O)n(Cc3ccccc3)c2c1 | -2%
COc1ccc(NC(=O)c2c(NCc3cccc(F)c3)sc3c2CCCC3)c(OC)c1 | 16%
Cc1ccc(-c2noc(C(C)NS(=O)(=O)c3ccc(C)cc3)n2)cc1 (centres undefined) | 2%
CCc1ccccc1NC(=O)Cn1c(=O)n(-c2ccc(C)cc2)c(=O)c2cc(OC)c(OC)cc21 | -1%
Cc1ccc(NC(=O)CSc2nc(-c3ccco3)cc(C(F)(F)F)n2)cc1 | 24%
Cc1ccc(-n2nc(C(=O)N3CCN(c4cccc(C(F)(F)F)c4)CC3)c(=O)n(C)c2=O)cc1 | 26%
O=c1oc2ccc(Cl)cc2cc1-c1nc(-c2cccs2)no1 | -1%
Cc1ccc(C)c(N2CCN(S(=O)(=O)c3c(C)nc4sccn4c3=O)CC2)c1 | -1%
Cc1cccc(NC(=O)COc2cccc3c(=O)n(C)ccc23)c1C | 18%
Cc1ccc(Sc2ccc(N3CCC(C(=O)Nc4cc(C)cc(C)c4)CC3)nn2)cc1 | -3%
COc1cccc2c1Oc1ncccc1N(C(=O)CCC(=O)NCCC(C)C)C2 | -2%
CCOc1ccccc1NC(=O)CSC1=Nc2ccccc2C2=NC(CC(=O)NCc3ccc4c(c3)OCO4)C(=O)N12 (centres undefined) | u
COc1ccc2nc3sc(C(=O)N4CCN(c5ccc(F)cc5)CC4)cc3cc2c1 | 2%
Cc1ccc(-c2nnn3c2nc(NCc2ccc4c(c2)OCO4)c2ccccc23)cc1 | -16%
CCOC(=O)c1ccccc1NC(=O)CCc1c(C)nc2ncnn2c1C | -3%
CC(C)c1ccc(NC(=O)c2cnc3sc(N4CCCC4)nn3c2=O)cc1 | 1%
CCc1nnc2c3ccccc3nc(N3CCN(c4ccc(C)cc4C)CC3)n12 | -11%
COc1ccc(OC)c(CNC(=O)c2ccc(Sc3ccc(C)cc3)c(N)c2)c1 | 18%
CCOC(=O)c1ccc(NC(=O)CSc2nc(-c3ccc(F)cc3)cc(C(F)(F)F)c2C#N)cc1 | 2%
Cc1ccc(Cl)cc1NC(=O)N1CCc2cc(S(=O)(=O)N3CCC(C)CC3)ccc21 | -5%
COc1cccc(NS(=O)(=O)c2cc(-c3cnc(C4CC4)o3)ccc2C)c1 | u
CCC1CN(S(=O)(=O)c2cc(-c3cc(C)no3)ccc2C)c2cc(Cl)ccc2O1 (centres undefined) | 1%
CCOc1ccccc1NC(=O)c1c2c(nc3ccccc13)C(=O)N(C1CCCCC1)C2 | 16%
CCCc1noc(-c2ccc(NCc3ccc(C)cc3)c([N+](=O)[O-])c2)n1 | 0%
CCCn1c(=O)c2sccc2n2c(CCCC(=O)N3CCN(c4ccccc4)CC3)nnc12 | 1%
Cc1ccccc1C(=O)Nc1ccc(C(=O)OCc2cc(=O)n3c4c(sc3n2)CCCC4)cc1 | 8%
Cc1ccc(C(=O)Nc2cccc(OCc3cc(=O)n4c5c(sc4n3)CCCC5)c2)cc1 | -6%
O=C(NCCc1ccccc1)C(=O)NCC(c1cccs1)S(=O)(=O)c1cccs1 (centres undefined) | 5%
Cc1ccc(NC(=O)C2CCN(S(=O)(=O)c3ccc4c(c3)CCCC(=O)N4)CC2)c(Cl)c1 | 0%
CCc1ccc(NC(=O)C(CC)n2nnc(C(=O)OC)c2C(=O)OC)cc1 (centres undefined) | 1%
Cc1cc(Br)ccc1NC(=O)c1cc2c(s1)-c1ccccc1SC2 | 17%
CCCN(CCC)C(=O)Cn1c(=O)n(-c2ccc(C)cc2)c(=O)c2ccc(C(=O)NCc3ccccc3Cl)cc21 | -3%
Cc1ccc(S(=O)(=O)c2cn(Cc3ccccc3Cl)c3ccc(F)cc3c2=O)cc1 | 14%
CC(=O)N1CCc2cc(CNS(=O)(=O)c3ccc(F)cc3)ccc21 | -36%
COc1ccc(-c2nc3c4ccccc4n(CC(=O)N4CCN(c5ccc(F)cc5)CC4)c(=O)n3n2)cc1 | -10%
COc1ccc(Cl)cc1NS(=O)(=O)c1ccc2[nH]c3c(c2c1)CCCC3 | 24%
COC(=O)c1ccc(CSc2nc3ccncc3n2Cc2ccc(F)cc2)cc1 | -29%
Cc1ccc(C)c(-n2cc(-c3ccccc3)nc2SCC(=O)Nc2ccccc2)c1 | 17%
CCOc1ccc(N(CC)S(=O)(=O)N2CCCC(C(=O)NCCc3ccccc3OC)C2)cc1 (centres undefined) | 19%
Cc1ccc(NC(=O)/C(C#N)=C/c2cc(C)n(-c3ccc(F)cc3)c2C)cc1C | -1%
CCOc1ccc(NC(=O)CSc2nc(C)c(C(=O)Nc3ccccc3)c(-c3ccc(Cl)cc3)c2C#N)cc1 | 14%
Brc1ccc(CN2CCc3nc(Nc4ccccc4)ncc3C2)s1 | 3%
CCN(CC)c1ccc(-c2nc(-c3ccccn3)no2)cc1[N+](=O)[O-] | -1%

Some of the entries above in another layout:
> Cc1ccc(NC(=O)/C(C#N)=C/c2cc(C)n(-c3ccc(F)cc3)c2C)cc1C
- miR-21 reporter: -1%

> Brc1ccc(CN2CCc3nc(Nc4ccccc4)ncc3C2)s1
- miR-21 reporter: 3%

> CCOc1ccc(NC(=O)CSc2nc(C)c(C(=O)Nc3ccccc3)c(-c3ccc(Cl)cc3)c2C#N)cc1
- miR-21 reporter: 14%

> Cc1cc(Br)ccc1NC(=O)c1cc2c(s1)-c1ccccc1SC2
- miR-21 reporter: 17%

Next entries.
SMILES | miR-21 reporter
CN1CCN(C(=O)C(=O)Nc2c3c(nn2-c2cccc(Cl)c2)CSC3)CC1 | -2%
CC(C)(C)c1ccc(S(=O)(=O)N2CCN(Cc3noc(CCC(=O)N4CCCCC4)n3)CC2)cc1 | 6%
COc1ccc(C(=O)Oc2c(Sc3ccccc3)c(C)nn2-c2ccccc2)c(OC)c1 | u
COc1ccccc1CNC(=O)CCCCn1c(=O)c2ccccc2n(Cc2ccccc2C)c1=O | -5%
CSc1ccc(CCNC(=O)c2ccc3c(c2)c(C)c(C)n3Cc2ccc(F)cc2)cc1 | -4%
Cc1ccc(NC(=O)CN2C(=O)CSc3ccc(S(=O)(=O)N4CCCC4)cc32)cc1F | 19%
Cc1ccc(CNC(=O)C2CCN(Cc3nc(-c4cccc(Br)c4)oc3C)CC2)cc1 | -1%
COc1ccc(Cn2c(C(=O)O)c(CNCc3cccs3)c3ccc(C)cc32)cc1 | 14%
Cn1c(SCc2cccc(F)c2)nc2c([nH]c3ccccc32)c1=O | -3%
COc1cc2[nH]c(=O)n(CCCC(=O)N3CCN(c4cccc(C(F)(F)F)c4)CC3)c(=O)c2cc1OC | 3%
COc1cc(NC(=O)C2=CC(c3ccc(F)cc3)=NS(=O)(=O)N2C)cc(OC)c1OC | -31%
COCCNC(=O)CSc1c2c(nc3cc(Cl)ccc13)CCCC2 | 16%
COc1cccc(/C=C(\C#N)c2nc3ccccc3c(=O)[nH]2)c1OC | 3%
Cc1ccc(NCc2cccn2-c2nnc(N3CCC(C(=O)NCc4ccc(OC(C)C)cc4)CC3)s2)cc1 | 26%
COc1ccccc1NC(=O)C1=C(C)Nc2nc(SCC(=O)c3ccc(C)cc3)nn2C1c1ccc(F)cc1 (centres undefined) | -2%

Exported field by field: part of the list above
> COc1ccc2c(CNCCc3ccco3)c(C(=O)O)n(Cc3ccccc3)c2c1
- miR-21 reporter: -2%

> COc1ccc(NC(=O)c2c(NCc3cccc(F)c3)sc3c2CCCC3)c(OC)c1
- miR-21 reporter: 16%

Next part.
SMILES | miR-21 reporter
Cc1nc(-c2ccc(S(=O)(=O)Nc3ccc(C#N)cc3)cc2)co1 | -1%
COc1ccc(N2CC(NC(=O)C3CCCCC3)CC2=O)cc1OC (centres undefined) | 1%
Cc1ccc(Sc2c(C)nn(C(C)(C)C)c2OC(=O)CC(C)C)cc1 | 10%
Cc1nn2c(=O)cc(COC(=O)c3ccc(NC(=O)COc4ccccc4F)cc3)nc2s1 | -6%
COc1ccccc1-c1cc2nc(C)c(CCC(=O)NCc3cccc(Cl)c3)c(C)n2n1 | u
O=C(C1CCN(S(=O)(=O)c2cccc3nonc23)CC1)N1CCN(c2cccc(Cl)c2)CC1 | u
CCOc1ccc(C(=O)c2oc3ccccc3c2NC(=O)c2cc(-c3ccccc3)on2)cc1 | -4%
CCc1ccc(-c2nc3c(c(SCc4ccccc4F)n2)Cc2c(CO)cnc(C)c2O3)cc1 | 0%
Cc1ccc(Cl)cc1N1CCN(C(=O)c2ccc(CS(=O)(=O)c3ccc(Br)cc3)o2)CC1 | 3%
O=C(Nc1ccc(Br)cc1)c1ccc(Br)c(S(=O)(=O)N2CCCCC2)c1 | 5%
CCOc1ccccc1CNC(=O)Nc1cn(CC(C)C)c(=O)c2ccccc12 | 0%
Cc1ccc(CCNC(=O)c2ccc3nc(N4CCC(C)CC4)sc3c2)cc1 | -30%
COC(=O)c1cccc(CN2C(=O)SC(Nc3ccccc3C)C2=O)c1 (centres undefined) | 0%
CCn1c(=O)n(CC)c2cc(N3CCCC3)c(NC(=O)Nc3cc(C)cc(C)c3)cc21 | -2%
Cc1ccc2nc(-c3ccsc3)c(Nc3ccc(C(C)C)cc3)n2c1 | -10%

Brought forward from above: 4 entries, then new ones.
SMILES | miR-21 reporter
Cc1ccc(CCNC(=O)c2ccc3nc(N4CCC(C)CC4)sc3c2)cc1 | -30%
COC(=O)c1cccc(CN2C(=O)SC(Nc3ccccc3C)C2=O)c1 (centres undefined) | 0%
CCn1c(=O)n(CC)c2cc(N3CCCC3)c(NC(=O)Nc3cc(C)cc(C)c3)cc21 | -2%
Cc1ccc2nc(-c3ccsc3)c(Nc3ccc(C(C)C)cc3)n2c1 | -10%
O=C(c1cccc([N+](=O)[O-])c1)N1c2nc(-c3ccco3)nn2C2(CCCCC2)[C@@H]2CCCC[C@@H]21 | 6%
COc1cccc(CNC(=O)CN(c2ccc(C)cc2)S(=O)(=O)N(C)C)c1OC | -3%
O=C(NCc1ccc(F)cc1)c1c(O)nc2ccccn2c1=O | -5%
COc1ccccc1CNC(=O)C(=O)NCC(c1ccco1)S(=O)(=O)c1ccc(F)cc1 (centres undefined) | 13%
CC(=O)Nc1ccc(Nc2nc3ccc(C)cc3n3nnnc23)cc1 | -27%
Cc1ccnc2nc(NC(=O)c3ccccc3Cl)nn12 | -2%
O=c1c2ccccc2nc(-c2ccc(Cl)cc2)n1CCCCOc1ccc(F)cc1 | -7%
Cc1ccc(NC(=O)CN2C(=O)c3cccnc3Sc3ccccc32)c(Br)c1 | -19%
Cc1cc(C)n2nc(-c3ccc(Cl)cc3)nc2n1 | -42%
CC1=Nc2cc(C(=O)NC3CCCC3)ccc2Sc2ccc(Cl)cc21 | 22%
CC1CCN(S(=O)(=O)c2ccc3c(c2)N(CC(=O)NC(C)C)C(=O)CO3)CC1 | -3%
CC(C)c1ccc(NC(=O)c2ccc(Cn3nc(N4CCN(c5ccccc5)CC4)ccc3=O)o2)cc1 | 2%
CC(C)Cn1c(SCc2cccc(F)c2)nc2ccsc2c1=O | -1%
COc1cccc(N2CC(NC(=O)c3cccs3)CC2=O)c1 (centres undefined) | 15%
Cc1ccc(/C=C(\C#N)C(=O)Nc2cccc(Br)c2)o1 | -57%
CCOc1ccc(CCNC(=O)CSCc2nc(-c3cccc(C)c3)oc2C)cc1OCC | 19%
Cc1ccc(C)c(CN2C(=O)N(c3cc(Cl)ccc3C)S(=O)(=O)c3ccccc32)c1 | -2%
O=C(NCc1ccccc1)C(=O)NCC(c1ccco1)S(=O)(=O)c1ccc(Cl)cc1 (centres undefined) | 23%
O=C(NCc1ccc(Cl)cc1)C1(c2cccs2)CCOCC1 | -6%
CCOc1ccc(CN2CCc3nc(N4CCN(c5ncccn5)CC4)ncc3C2)cc1OC | 13%

Screening data as filed in PubChem.
